Screens deposited in PubChem BioAssay by Center for Chemical Genomics, University of Michigan.
HIV TAR-Tat: HIV-1 TAR-Tat binding disruption; HIV-1 TAR RNA, Tat peptide displacement FRET; active compounds read high; z-score (test concentration not listed); 100,000 tested, 0.6% active; AID 1259389;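 also: score is relative to mean and SD of negative controls; some compounds called inactive have numbers as strong as hits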
CDC25B-CDK2 inh: human CDC25B-CDK2/CyclinA binding inhibition; P30305+P24941; HTRF CDC25B-CDK2/CyclinA binding, anti-His/anti-Flag; active compounds read high; z-score (no concentration beside the values); 94,000 tested, 0.72% active; AID 1259370;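 also: score is relative to mean and SD of negative controls; strong numbers were not always called active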
Starred values were filed as active, the others as inactive; . = no result given.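 The calls were made as follows: active = z-score from 3 up in half or more of its runs; inactive = the rest.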

Compound	HIV TAR-Tat	CDC25B-CDK2 inh
O=C(C1CCN(S(=O)(=O)c2cccc3cccnc23)CC1)N1CCN(C2CCCC2)CC1	1.7	.
Cc1ccccc1Nc1ncnc2onc(C)c12	0.37	.
CCCCP(=O)(CCCC)CP(=O)(c1ccccc1)c1ccccc1	.	-1.2
CCn1cc(S(=O)(=O)c2ccc(Cl)cc2)c(=O)c2cc(F)c(N3CCCC3)cc21	-1.4	.
COc1ccc(OC)c(NC2=NS(=O)(=O)C(c3ccc(C)cc3)=C2C)c1	-0.21	-0.77
c1ccc(N2CCN(c3ncnc4c3oc3ccccc34)CC2)cc1	1.5	-0.23
Cn1c(=O)oc2cc(S(=O)(=O)N3CCC(C(=O)NCc4cccs4)CC3)ccc21	1.6	-1.6
C/C1=C\[C@@H](O)[C@@H](C(C)C)C(OC(=O)c2ccc(O)cc2)C/C(C)=C/CC1 (some centres not stated)	1.9	.
Cc1ccc(C(=O)N2CCC(c3nc4c(nnn4Cc4ccc5c(c4)OCO5)c(=O)[nH]3)CC2)cc1	1.5	-0.39
Cc1c(C(=O)NCCN(Cc2ccco2)C2CCCC2)sc2nc3n(c(=O)c12)CCCC3	1.8	.
CCOC(=O)c1cc(C)n(-c2ccc(N3CCOCC3)nc2)c1C	-2.5	.
COc1ccc(-c2[nH]nc3nc(-c4cc(Br)ccc4F)cc(C(=O)O)c23)cc1	2.2	.

Additional records.
Compound	HIV TAR-Tat	CDC25B-CDK2 inh
Cc1cc(C)c2c(CC(=O)Nc3nc(C)c(C(=O)OCC(C)C)s3)coc2c1	0.57	-3.3
CCCSc1nnc(NC(=O)Cc2coc3ccc(OC)cc23)s1	-0.78	-2
NCC(=O)CCC(=O)O	-0.76	.
Nc1nnc(-c2ccccc2SCc2ccc(F)cc2)s1	2.4	0.43
COc1cc(NS(=O)(=O)c2cc(/C=C/c3onc(C)c3[N+](=O)[O-])ccc2C)cc(OC)c1	1.6	.
C=CCn1c(NCCc2ccccc2)nc2c1c(=O)n(C)c(=O)n2C	.	1.1
CC(C(=O)Nc1nccs1)N1C(=O)c2ccccc2C1=O (configuration not stated)	.	0.02
CS(=O)(=O)c1ccc2nc(NC(=O)CCc3ccccc3)sc2c1	.	-0.66
CSc1ccc(C=Nc2ccc(Cl)cc2Cl)s1	.	-1.6
CC1Cc2cc(S(=O)(=O)N(C)CC(=O)N3CCOCC3)ccc2N1C(=O)C1CC1 (configuration not stated)	0.75	.
CCC1SC(C)C/C(=N\O)C1C (configuration not stated)	.	-2.5
Fc1cccc(Cl)c1CSCc1nc2ccccc2[nH]1	0.65	0.03

Remaining list, next part:
Compound	HIV TAR-Tat	CDC25B-CDK2 inh
N#CC1=C(N)Oc2cc(O)ccc2C1c1cccc2ccccc12 (configuration not stated)	.	0.52
CC(C)CCN1CSC2=C(C#N)C(c3ccc(Cl)cc3)CC(=O)N2C1 (configuration not stated)	0.8	0.66
Cc1cc(C)c(S(=O)(=O)Nc2cc(Cl)c3oc(=O)sc3c2)c(C)c1	-1.1	-2.7
COc1cn(CC(=O)NC2CCCC2)c(CSc2ccc(Cl)cc2)cc1=O	0.18	.
COc1cccc(N2CCN(C(=O)c3cnc4sc(N5CCOCC5)nn4c3=O)CC2)c1	0.75	.
Cc1c(C(=O)N2CCC(C)CC2)c(S(=O)(=O)Nc2cc(F)ccc2F)c(C)n1C	0.79	.
COc1ccc(-c2cc(C(F)(F)F)n3nc(C(=O)O)nc3n2)cc1	1.1	0.31
CC1(C(=O)c2ccccc2)C2c3cc(Br)ccc3OC(=O)C21C(=O)c1ccco1 (configuration not stated)	.	0.87
CCN(CC)c1cc2c(cc1F)c(=O)c(S(=O)(=O)c1cccc(Cl)c1)cn2C	1.6	.
O=C(Cn1c(CN2CCOCC2)nc2ccccc21)N1CCOCC1	0.65	-0.32
CC(C)NC(=O)CCC(=O)N1CC(C)Oc2ccccc21 (configuration not stated)	-0.31	-1.5
CC(=O)Oc1ccc(Cl)cc1C1=NN(C(C)=O)C(c2ccc(OC(=O)c3ccco3)cc2)O1 (configuration not stated)	-0.49	.

(continued)
Compound	HIV TAR-Tat	CDC25B-CDK2 inh
O=C1CSC(c2ccccc2)N1CCc1ccccc1 (configuration not stated)	1.9	0.89
CCOCCCNC(=O)Cn1nc(C)c2sc3ccccc3c2c1=O	2	-3
COc1ccc2[nH]c3c(=O)n(CCCCC(=O)NC4CC4)c(=S)[nH]c3c2c1	.	-0.3
O=C(NC(c1ccccc1)c1ccccc1)c1cc2ccccc2c(=O)s1	0.75	-1.8
CCOC(=O)c1c(NC(=O)c2cc(=O)c3cc(C)cc(C)c3o2)sc2c1CCCC2	1.5	-1.5
COc1ccc(-c2cnnn2-c2ccc(N)cc2)cc1	0.16	-0.08
O=C(CCS(=O)(=O)c1cc2c(cc1Cl)NC(=O)CO2)NCc1ccc2c(c1)OCO2	2	.
O=c1n(Cc2ccccc2)c2ccccc2n1Cc1ccccc1	1.3	1.5
COCC1=C(C(=O)OC)C(c2ccncc2)C(C#N)=C(N)O1 (configuration not stated)	.	0.12
O=C(CN1/C(=C(/O)c2ccccc2)C(=O)c2ccccc2S1(=O)=O)c1ccccc1	-0.46	-0.61
CCSCCOC(=O)C1=C(C)NC2=C(C(=O)CC(C)(C)C2)C1c1ccccc1Br (configuration not stated)	3.1	-1.4
CC1CC(C)CN(C(=O)c2nn(C)c3c2COc2ccccc2-3)C1 (configuration not stated)	1.1	-1.5

Additional entries:
Compound	HIV TAR-Tat	CDC25B-CDK2 inh
O=S(=O)(c1ccccc1)N1CCc2ccccc2C1	.	-0.99
CCCc1cc(=O)[nH]c(Nc2cc(Cl)ccc2OC)n1	0.5	-1.9
CC12CNC3(CO)CC1CCC32C (configuration not stated)	1.6	-1.2
CCOC(=O)c1cc(-c2ccc(S(=O)(=O)Nc3ccc(N4CCC(C)CC4)cc3)s2)on1	0.52	.
C/C(=N\OCC(=O)O/N=C(\N)COc1ccc(Cl)cc1Cl)c1ccc(Cl)cc1	.	-0.04
Cn1c(=O)n(Cc2ccco2)c(=O)c2cc3c(nc21)CC(C)(C)OC3	-0.13	-1.4
O=C(NCc1ccco1)C1C2C=CC3(CN(Cc4cccnc4)C(=O)C13)O2 (configuration not stated)	-1.4	.
O=C(Cn1ncc2c1-c1ccccc1OC2)Nc1ccc(F)cc1F	0.91	-1.3
C=CCN1C(=O)/C(=C\c2ccc(OCc3cccc(C)c3)c(OC)c2)SC1=S	.	-5.5
COc1ccc(OC)c(NC(=O)CSc2nccn2Cc2ccco2)c1	1.5	.
Cc1nc2nc[nH]n2c(=O)c1NS(=O)(=O)c1cccs1	0.91	-1.4
COC(=O)c1cc2cc(Cl)ccc2nc1SC	.	-1.5

Continuation.
Compound	HIV TAR-Tat	CDC25B-CDK2 inh
Cc1oc2ncnc(N3CCOCC3)c2c1C(=O)N(Cc1ccco1)C1CCCCC1	0.5	.
O=C(NCC(c1ccco1)S(=O)(=O)c1cccs1)c1ccc(Cl)cc1 (configuration not stated)	0.93	.
O=C(Cc1cccs1)NC1C(=O)N2C(C(=O)[O-])=C(C[n+]3ccccc3)CSC12 (configuration not stated)	0.6	.
N#CC1=C(N)Oc2ccc3ccccc3c2C1c1ccccc1Cl (configuration not stated)	0.44	-1.4
COC(=O)c1sccc1Oc1nccc(C(F)(F)F)n1	.	-0.49
CCOC(=O)c1c(C)n(CCO)c2ccc(O)cc12	4	0.49
CCC(C(=O)NCc1ccco1)n1nc(C)c2sc3ccccc3c2c1=O (configuration not stated)	2.1	-0.05
CCOc1ncnc2cc(OC)c(OC)cc12	.	-1.8
COc1ccc(N2CCN(CC(O)c3ccc4cc[nH]c4c3)CC2)cc1 (configuration not stated)	0.56	-0.56
O=C(c1ccccc1)c1ccc2nc(NCCO)c3nncn3c2c1	0.16	.
Cc1cc(SCC(=O)Nc2ccc(Cl)cc2)nc(C)n1	0.73	-1.4
O=C(Nc1ccccc1Cl)c1c(O)c2ccccc2[nH]c1=O	0.84	.

A second format for part of the listing above.
Each structure is followed by: HIV TAR-Tat	CDC25B-CDK2 inh
- CCC(C(=O)NCc1ccco1)n1nc(C)c2sc3ccccc3c2c1=O (configuration not stated)
 : 2.1	-0.05
- Cc1cc(SCC(=O)Nc2ccc(Cl)cc2)nc(C)n1
 : 0.73	-1.4
- O=C(Nc1ccccc1Cl)c1c(O)c2ccccc2[nH]c1=O
 : 0.84	.
- COC(=O)c1sccc1Oc1nccc(C(F)(F)F)n1
 : .	-0.49
- O=C(c1ccccc1)c1ccc2nc(NCCO)c3nncn3c2c1
 : 0.16	.
- O=C(Cc1cccs1)NC1C(=O)N2C(C(=O)[O-])=C(C[n+]3ccccc3)CSC12 (configuration not stated)
 : 0.6	.

(next part)
Compound	HIV TAR-Tat	CDC25B-CDK2 inh
CCN(Cc1cc2cc(C)ccc2[nH]c1=O)S(=O)(=O)c1ccccc1	-0.59	-3
Cc1ccc(-c2nc3sc(CCNS(=O)(=O)c4ccc(C)cc4)c(C)n3n2)cc1	1.3	.
Cn1c(SCc2cc(F)cc3c2OCOC3)nnc1C(F)(F)F	.	-0.35
COc1cccc(CNc2ncnc3c2nnn3C)c1	0.1	.
CC(C)(C)CC(C)(C)NC(=O)c1ccc([N+](=O)[O-])cc1	.	-2.1
COc1ccc(Oc2c(C(F)(F)F)oc3cc(OC(=O)c4ccco4)ccc3c2=O)cc1	-2.1	-2.6
CCOc1ccc(OCC)c(NC2=NS(=O)(=O)C(c3ccc(C)cc3)=C2C)c1	-1.1	-0.99
O=C(Nc1cc(F)ccc1F)c1noc2c1CSc1ccccc1-2	0.66	0.19
Cc1c(NC(=O)c2nn(-c3ccc(Cl)cc3)ccc2=O)c(=O)n(-c2ccccc2)n1C	-0.01	0.95
Cc1nnc2c(N3CCCCCC3)nc3ccccc3n12	.	0.56
COc1ccc(C2=C(C)C(N3CCCCC3)=NS2(=O)=O)cc1	-0.22	-0.05
Cc1ccccc1OCc1n[nH]c(=S)n1Cc1ccccc1	.	-1.8

(next part)
Compound	HIV TAR-Tat	CDC25B-CDK2 inh
COc1ccc(OC)c(NS(=O)(=O)c2cc3c(cc2Cl)NC(=O)CO3)c1	-4	.
O=C1CC(=O)CC(c2cccs2)C1	.	-2.1
O=C(CN1C(=O)c2cccnc2Oc2ccccc21)N1CCC(N2CCCCC2)CC1	0.85	.
CC12CN3CC(C)(CN(C1)C3c1ccccc1Cl)C2 (configuration not stated)	1.9	-0.2
Cc1[nH]c2ccc(Br)cc2c1CC(=O)NNS(=O)(=O)c1ccccc1	.	-1.1
CCCNC(=O)[C@H]1O[C@@H]1C(=O)N[C@H](C(=O)N1CCC[C@H]1C(=O)OC)C(C)CC (some centres not stated)	0.86	.
CC1CCc2c(sc(N)c2C(=O)Nc2ccc(Br)cc2)C1 (configuration not stated)	-4.8	-1
Cc1cc(-c2ccc(S(=O)(=O)NCCCc3ccccc3)s2)on1	1.7	.
O=C(Cn1ncn2c(cc3sccc32)c1=O)NCc1ccccc1	1.6	-2.8
O=C1CC(Nc2ccccc2)C(=O)N1c1ccccc1Cl (configuration not stated)	0.98	0.55
O=C(O)CC(CC(=O)NCc1ccco1)c1ccccc1 (configuration not stated)	.	-0.73
CC1=NN(C(=O)C2CC2)C(O)(C(F)(F)F)C1 (configuration not stated)	.	-0.04

Additional structures.
Compound	HIV TAR-Tat	CDC25B-CDK2 inh
O=C(Nc1ccc(OCc2ccccc2)cc1)Nc1ccc2c(c1)C(=O)OC2	.	0.77
Cc1ccc2c(c1)C(O)(CC(=O)c1ccc3ccccc3c1)C(=O)N2 (configuration not stated)	-0.07	3.3
CN1C(C(=O)NCCN2CCOCC2)=CC(c2ccco2)=NS1(=O)=O	2.1	-2.4
CC1CCCCC1NC(=O)C1(C)Cn2c(cc3occc32)C(=O)N1CCN1CCCC1 (configuration not stated)	2.6	.
COc1ccc(C2CC(=O)Nc3c2c(C)nn3-c2ccc3nnc(C)n3n2)cc1 (configuration not stated)	1.4	.
CCN1CCN(S(=O)(=O)c2ccc3c(c2)N(CC(=O)OC)C(=O)CS3)CC1	1	.
COC(=O)C1=C(NC(=O)NC(=O)N(C)S(=O)(=O)c2ccc(C)cc2)CCS1	1.7	-2.2
CCSC1(SCC)N=C(N)C2(C#N)C(c3ccc(OC)cc3)C12C#N (configuration not stated)	.	0.53
N#Cc1nc(/C=C/c2ccccc2)oc1N1CCN(C(=O)c2ccc(F)cc2)CC1	-0.2	0.76
CCOc1ccc2ccccc2c1/C=C1\N=C(SCC)SC1=O	-0.05	1.6
CCOc1nc(-c2ccccc2)ccc1-c1noc(CC)n1	2	-1.1
CC(C)c1ccc(-c2c(N3CCOCC3)c(=O)c2=O)cc1	0.42	.

The results go on:
Compound	HIV TAR-Tat	CDC25B-CDK2 inh
COC(=O)c1sccc1S(=O)(=O)Nc1ccc(F)c(Cl)c1	0.57	.
Cc1ccc(Cc2c(C)[nH]n(-c3nc(C)c(C(=O)N4CCCC4)s3)c2=O)cc1	1.2	0.99
COc1cnc(CSc2nncn2C)cc1OCC(=O)Nc1cc(C)on1	0.47	.
Cc1ccn2c(=O)c(NC(=O)c3c(F)cccc3Cl)c(C)nc2c1	1	.
CCCCOC(=O)C1=C(C)NC2=C(C(=O)CC(C)(C)C2)C1c1ccc(OC)c(OC)c1 (configuration not stated)	0.83	-0.68
O=C(c1ccc(CS(=O)c2ccccc2Cl)o1)N1CCN(c2ccc(Cl)cc2)CC1 (configuration not stated)	1.4	.
CCOc1ccccc1NC(=O)C(CC)Sc1nnc(C)n2c1cc1sccc12 (configuration not stated)	2.1	.
c1cc(CNc2ncnc3sc4c(c23)CCCC4)ccn1	0.8	-0.55
CCOC(=O)C1CCCN(C(=O)C2CCN(c3nnc(-n4cccc4)s3)CC2)C1 (configuration not stated)	0.96	-0.16
O=C(NCc1ccc2c(c1)OCO2)c1cnn2c3c(cnc12)CCCCC3	0.41	.
CCC(Sc1ccc2nnc(-c3ccc(C)cc3)n2n1)C(=O)O (configuration not stated)	.	-2.2
